From PubChem
Arbovirus inh – blocks arbovirus infection | arbovirus infection cell-based antiviral screen | inhibition, % at 10 µM | 0.37% of 200,000 active;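 active = inhibition from about 30%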;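 also: bluetongue infection of BSR cells; cell survival read as ATP light after 72 h; 0% = infected wells without compound and 100% = uninfected wells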
YopH inh – blocks Yersinia enterocolitica YopH tyrosine phosphatase | fluorescence Ex485/Em525 | AID 898 | inhibition, %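 (about 10 µM by stock and volumes)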 | 0.16% of 140,000 active;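 active = inhibition of 50% or more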;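 also: controls were vehicle for no effect and minimum signal wells for full effect; inactives centre near -20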
Mtb bLac sens – beta-lactam sensitization of Mtb H37Rv. M. tuberculosis H37Rv growth with meropenem, percent inhibition; hits of this screen are not shown here. inhibition, % at 25 µM. 0.27% of 330,000 active. AID 434955;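 active = about 74% or more and at least 40 points above the plate without the antibiotic, then above 30% in a dose series; inconclusive = first-round hits that could not be retested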;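 also: growth measured after seven days incubation then overnight dye step; 0% = bacteria only wells and 100% = bacteria with antibiotic; twin plates without the antibiotic show which effects depend on it; some results filed as inactive read as strong as hits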
Mtb growth – M. tuberculosis H37Rv growth inhibitors, H37Rv strain (AID 1626). M. tuberculosis H37Rv growth inhibition; higher % means a stronger effect. 0.95% of 220,000 active. inhibition, % at 10 µM; hits with a dose series show IC50 in µM;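 active = confirmed in a dose series; inconclusive = inhibition above 80% but not taken into the dose series; inactive = below 80% or under 30% at every dose of the series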;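 also: bacteria incubated seven days before Alamar blue readout; 0% = bacteria only wells and 100% = bacteria with antibiotic wells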
RecA splice inh – Mtb RecA intein splicing inhibition; P9WHJ3; cell-free RecA intein splicing, fluorescence; inhibition, %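 (about 9 µM by stock and volumes)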; 0.75% of 290,000 active; in the data active = inhibition above about 30%; inconclusive = no clear call, values can overlap the other calls;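 also: 0% = vehicle wells and 100% = reference inhibitor control wells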
Target sequence (P9WHJ3 whole entry, looked up, canonical isoform): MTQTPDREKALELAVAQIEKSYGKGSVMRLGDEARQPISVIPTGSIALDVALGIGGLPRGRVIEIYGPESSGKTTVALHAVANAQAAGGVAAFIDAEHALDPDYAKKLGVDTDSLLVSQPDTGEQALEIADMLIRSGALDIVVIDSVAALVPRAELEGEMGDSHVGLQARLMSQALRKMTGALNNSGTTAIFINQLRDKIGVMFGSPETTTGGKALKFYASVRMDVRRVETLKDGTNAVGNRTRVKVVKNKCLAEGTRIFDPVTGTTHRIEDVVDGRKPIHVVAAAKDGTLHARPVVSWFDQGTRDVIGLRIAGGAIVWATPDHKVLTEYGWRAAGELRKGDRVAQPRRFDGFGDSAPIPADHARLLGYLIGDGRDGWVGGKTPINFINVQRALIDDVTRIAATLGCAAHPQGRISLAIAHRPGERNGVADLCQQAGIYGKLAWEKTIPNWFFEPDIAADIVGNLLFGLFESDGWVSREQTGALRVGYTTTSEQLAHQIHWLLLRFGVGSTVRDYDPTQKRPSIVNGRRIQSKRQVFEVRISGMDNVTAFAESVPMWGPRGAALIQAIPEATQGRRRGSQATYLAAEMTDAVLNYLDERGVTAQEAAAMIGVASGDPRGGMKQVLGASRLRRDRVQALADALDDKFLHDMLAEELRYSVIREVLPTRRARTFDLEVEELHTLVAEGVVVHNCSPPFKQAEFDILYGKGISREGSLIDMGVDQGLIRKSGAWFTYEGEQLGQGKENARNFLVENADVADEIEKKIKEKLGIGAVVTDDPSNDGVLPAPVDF
Arbovirus inh repeat – further read-out of Arbovirus inh, marked with its call; inhibition, %; measured here: 10K subset replicate screen; many hits read low in the repeat;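 first of two repeat runs on a subset; 0% = infected and 100% = uninfected wells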
* = called active by the depositor; ? = inconclusive; / = not tested or not shown. This is a subset (hit frequency here may not be typical).

SMILES	Arbovirus inh	YopH inh	Mtb bLac sens	Mtb growth	RecA splice inh	others
COc1ccc(-c2nc(CS(=O)CC(=O)NCc3ccco3)c(C)o2)cc1 (configuration not stated)	2	-15	-2	-2%	0.9	Arbovirus inh repeat=-8
CS(=O)(=O)N(CC(=O)N1CCCC1)c1ccccc1Br	/	/	1	/	0.7
Cc1nc2c3ccccc3nc(NNC(=O)CCC(=O)N3CCC(C)CC3)n2n1	/	/	-3	/	-2.9
COC(=O)c1[nH]c2ccc(C)cc2c1NC(=O)CN1CCCc2ccccc21	7	-123	-4	5%	3.8
COc1ccc(C(=O)COC(=O)CCNS(=O)(=O)c2ccc(NC(C)=O)cc2)c(OC)c1	/	/	21	/	-0.5
CC(C)CCN(C(=O)CNC(=O)c1cccs1)C(C(=O)NC1CCCCC1)c1cccnc1 (configuration not stated)	/	/	-5	3%	-4.7
Cc1cc(=O)[nH]c(SCC(=O)Nc2ccc(Br)cc2)c1C#N	20	0	-3	-3%	3.3
O=[N+]([O-])c1ccc2c(c1)c1ccccc1n2CCO	/	/	-1	/	-3.1
CC(C)N=Cc1c(O)[nH]c2ccccc12	-3	3	-9	-11%	-3.3
CCC(C)NC(=O)C1(O)c2ccccc2NC(=O)N1c1ccc(C)c(C)c1 (configuration not stated)	/	/	-4	/	-0.3
COC(=O)C1=C(CS(=O)(=O)c2cc(Cl)ccc2OC)NC(=O)NC1c1ccc(O)c(OC)c1 (configuration not stated)	/	/	-7	/	-4.2
CC(=O)Nc1ccc(S(=O)(=O)Nc2ccccc2N2CCOCC2)cc1Cl	/	/	-3	/	0.7
CC1CN(c2cc3nccnc3cc2F)CC(C)O1 (configuration not stated)	2	-12	-2	-9%	-0.7
Cc1ccc(C2CC(=O)c3cnc(N4CCc5ccccc5C4)nc3C2)cc1 (configuration not stated)	-6	1	65	-8%	9.1
S=C(NCCc1ccccc1)N1CCn2cccc2C1c1cccnc1 (configuration not stated)	1	/	0	2%	7.2
CCCCNC(=O)C(=O)N/N=C/c1cccc(Br)c1	0	-14	40	62%	-1.2
CCCCOC(=O)CCCc1ccc([N+](=O)[O-])cc1[N+](=O)[O-]	5	/	11	2%	-0.5
CC(C)CN1CCNC(=O)C1CC(=O)NCCCN1CCCc2ccccc21 (configuration not stated)	5	/	-9	14%	-7.3
COc1ccc(CCNC(=O)C(C(=O)c2ccccc2)n2cc(Cl)ccc2=O)cc1OC (configuration not stated)	2	-32	-8	-2%	-0.6
CC1CCCCC1NC(=O)CSc1ccsc1[N+](=O)[O-] (configuration not stated)	0	/	/	-5%	/
O=C(O)CSc1cnc2ccccc2n1	5	-16	-7	-17%	2.3
N#C/C(=N\Nc1ccccc1)C(=N)N1CCCCCC1	/	/	-4	-9%	0.6
CCOC(=O)CC(NC(=O)Cn1nnc(-c2ccccc2)n1)c1ccc(OC)cc1 (configuration not stated)	3	/	-5	2%	1.5
O=C(c1ccccc1Cl)N1CCSCC1	/	/	2	0%	1.1
Nc1ncnc(Sc2ccc(Cl)cc2)c1[N+](=O)[O-]	-9	-19	6	9%	8.2
(listing goes on)
SMILES	Arbovirus inh	YopH inh	Mtb bLac sens	Mtb growth	RecA splice inh	others
O=[N+]([O-])c1ccc(COc2ccc(-c3[nH]ncc3-c3ccc(Cl)cc3)c(O)c2)cc1	-39	-25	94	23µM*	1.6
CCOC(=O)CN1C(=O)C(CC)Oc2ccc(Cl)cc21 (configuration not stated)	4	-43	0	2%	1.1
COc1cccc(/C=N/NC(=O)c2[nH]nc3c2CCc2ccccc2-3)c1O	-22	-10	11	-4%	3.2
O=C(CCN1C(=O)[C@@H]2Cc3ccccc3CN2C1=O)NCCc1ccccc1	/	/	-2	/	-9.4
CC(=O)Nc1ccc(S(=O)(=O)N2CCSC2c2ccccc2Cl)cc1 (configuration not stated)	-7	-8	-3	3%	-1.0
O=C(NCCCN1CCOCC1)c1cc(C(=O)C2CC2)c[nH]1	-4	-28	8	-6%	-2.0
CN(C)c1ccc(Cl)cc1N	-21	/	14	-6%	12
C=CCc1cccc(CNc2ccc(S(=O)(=O)Nc3nccnc3OC)cc2)c1O	/	/	2	/	-0.4
CCC(=O)OC1(C)C(=O)C2=COC(c3ccc(OC)cc3)=CC2=C(Br)C1=O (configuration not stated)	/	/	-2	4%	-14
CN(C)/C=N/c1c(C#N)cnn1-c1ncnc2sc(-c3ccccc3)cc12	-8	-15	37	-3%	3.6
C=CCN(CC=C)C(=S)NC(=O)/C=C/c1ccc(C)cc1	1	-26	-1	-3%	2.3
CCCCCCOc1ccc(C(=O)O)cc1	/	/	-5	-2%	0.4
COc1ccc(C[C@@H]2CN3C(=NC[C@@H]3C)N2CCNC(=O)c2ccc(C)c(Br)c2)cc1	12	/	-9	-1%	-1.1
Cc1c(Cl)cccc1NC(=S)NCCc1ccc(Cl)cc1	/	/	2	/	13
Cc1ccc(C)c(N2C(=O)CC(Cc3ccc(Cl)cc3)C2=O)c1 (configuration not stated)	/	/	-1	/	2.1
CCN(CC)S(=O)(=O)c1cc(C(=O)Nc2ccncc2)ccc1Cl	11	-19	1	1%	-0.2
S=C(Nc1ccc(Cl)cc1)Nc1ccc2c(c1)OCCO2	/	/	-8	/	3.7
COc1ccccc1CNC(=S)NCc1ccc(Cl)cc1	/	/	-3	/	5.2
CC(=O)Nc1ccc(NC(=O)COc2ccc(S(=O)(=O)N3CCCC3)cc2C)cc1	/	/	2	/	0.5
Cc1cc2ncn(C(=O)N3CCOCC3)c2cc1C	5	-14	3	8%	-11	Arbovirus inh repeat=3
COc1ccc(Br)cc1/C=C/C(=O)NC(=S)Nc1ccc(Cl)c(C(=O)O)c1	-7	/	5	-7%	2.7
Cc1nnc(NC(=O)C2CC(=O)N(C(C)c3ccccc3)C2)s1 (configuration not stated)	/	/	-15	/	-0.4
Cc1cccc(C)c1NC1=C(Cl)C(=O)OC1OC(=O)c1ccccc1 (configuration not stated)	-5	/	5	1%	23
CC1CCc2nc(NC(=O)CCSc3ccccc3)sc2C1 (configuration not stated)	1	-57	-13	6%	-0.8
CN(C)CCCN1C(=O)C2CCc3[nH]c4ccccc4c3C2C1=O (configuration not stated)	5	/	-1	8%	1.6

Part of the list above in order of SMILES length, smallest number first.
SMILES	Arbovirus inh	YopH inh	Mtb bLac sens	Mtb growth	RecA splice inh	others
N#C/C(=N\Nc1ccccc1)C(=N)N1CCCCCC1	/	/	-4	-9%	0.6
O=[N+]([O-])c1ccc2c(c1)c1ccccc1n2CCO	/	/	-1	/	-3.1
CN(C)/C=N/c1c(C#N)cnn1-c1ncnc2sc(-c3ccccc3)cc12	-8	-15	37	-3%	3.6
CCOC(=O)CC(NC(=O)Cn1nnc(-c2ccccc2)n1)c1ccc(OC)cc1 (configuration not stated)	3	/	-5	2%	1.5

The main list resumes, starting 2 compounds before the break.
SMILES	Arbovirus inh	YopH inh	Mtb bLac sens	Mtb growth	RecA splice inh	others
CC1CCc2nc(NC(=O)CCSc3ccccc3)sc2C1 (configuration not stated)	1	-57	-13	6%	-0.8
CN(C)CCCN1C(=O)C2CCc3[nH]c4ccccc4c3C2C1=O (configuration not stated)	5	/	-1	8%	1.6
CC(=O)c1ccccc1OC(=O)COc1ccc([N+](=O)[O-])cc1	/	/	1	/	9.6
Cc1cc(-c2nnc(SCC(=O)NC3CCCC3)o2)no1	9	-37	0	11%	-3.6
COc1ccc(NS(=O)(=O)NC(=O)c2c[nH]c3ccccc23)cc1	/	/	?	/	-1.2
O=c1c(-c2ccccc2)coc2c(CN3CCOCC3)c(O)ccc12	-4	-27	-9	-2%	-2.2	Arbovirus inh repeat=-4
CO/N=C(/CS(=O)Cc1ccc(Cl)cc1)c1ccc(Cl)cc1 (configuration not stated)	3	-7	12	1%	9.5
O=C1COc2ccccc2CN1	2	-25	1	-5%	1.7
COC(C(=O)Nc1ccc(C(C)=O)cc1)c1ccccc1 (configuration not stated)	0	-28	-10	15%	-0.9
CNC(=O)C1CCC(=O)N1Cc1ccc(C)cc1 (configuration not stated)	0	4	-9	-10%	-1.6
O=C(CCNS(=O)(=O)c1ccc2[nH]c(=O)oc2c1)NCc1ccccc1	/	/	2	/	-7.4
COc1ccc(NC(=O)c2cc3c(Cl)nc4ccccc4c3s2)c(OC)c1	8	-27	7	1%	-1.3
CCOc1ccccc1NC(=O)N1C2CCCC1CC(NC(=O)C1CC1)C2 (configuration not stated)	1	39	-3	-15%	-0.2
COC(=O)CSc1nc2c(c(-c3ccc(O)cc3)c1C#N)CCCC2	8	/	-12	-7%	19
CCCOC(=O)c1ccc(N2C(=O)c3ccccc3C2=O)cc1	6	-6	91	92%	7.1
CSc1ccc(/C=C(\NC(=O)c2ccco2)C(=O)N2CCCCC2)cc1	/	/	1	/	1.2
Cc1ccc2nc(-c3ccc(N4C(=N)SC5CS(=O)(=O)CC54)cc3)sc2c1 (configuration not stated)	-9	-18	4	9%	-0.7
COC(=O)CN1C(=O)[C@H]2[C@@H](c3ccc(C)o3)N3C(=O)CN(CC4CC4)C(=O)[C@@]3(Cc3ccccc3)[C@H]2C1=O	/	/	-8	/	-0.4
O=C(c1ccc(N2C(=O)c3ccccc3C2=O)cc1)N1CCCCC1	/	/	?	/	-0.8
COc1cccc(N(CC(=O)NCCSCc2ccco2)S(=O)(=O)c2ccccc2)c1	/	/	5	/	2.8
O=C(NCc1cccnc1)c1ccccc1-c1nc(-c2ccccc2)no1	-6	/	-6	0%	0.8
CSc1nc2ccc(S(=O)(=O)N3CCc4ccccc43)cc2s1	-7	21	-6	1%	-2.5
O=C(Cc1ccccc1[N+](=O)[O-])N1CCN(S(=O)(=O)c2ccccc2)CC1	/	/	-7	/	1.5
O=C(O)c1cccc(-n2nc(-c3ccc(Cl)c([N+](=O)[O-])c3)c3ccccc3c2=O)c1	/	/	14	/	0.1
O=C(c1ccccc1)N1CCC(c2nc(-c3ccc(S(=O)(=O)N4CCOCC4)cc3)no2)CC1	1	-10	-13	-1%	-1.3
Cc1ccc(S(=O)(=O)C2CCCCC2=O)cc1 (configuration not stated)	1	-12	-8	-3%	0.2
O=C(c1cc2nc(-c3cccs3)cc(C(F)(F)F)n2n1)N1CCCc2ccccc21	8	-21	-6	0%	-2.5

Taken from the listing for reference:
SMILES	Arbovirus inh	YopH inh	Mtb bLac sens	Mtb growth	RecA splice inh	others
Cc1ccc2nc(-c3ccc(N4C(=N)SC5CS(=O)(=O)CC54)cc3)sc2c1 (configuration not stated)	-9	-18	4	9%	-0.7
COC(=O)CN1C(=O)[C@H]2[C@@H](c3ccc(C)o3)N3C(=O)CN(CC4CC4)C(=O)[C@@]3(Cc3ccccc3)[C@H]2C1=O	/	/	-8	/	-0.4

(more compounds)
SMILES	Arbovirus inh	YopH inh	Mtb bLac sens	Mtb growth	RecA splice inh	others
CC(C)(CNC(=O)CCC1CCCC1)CNC(=O)CCC1CCCC1	/	/	-12	/	5.0
O=C(N/N=C/c1cccnc1)c1ccccc1Cl	/	/	-14	/	0.5
O=C(c1ccccc1Br)N1CCC(c2nc3ccccc3s2)CC1	1	/	-1	6%	-2.8
COc1cccc(COC(=O)CSCC(=O)Nc2cccc(C)c2)c1OC	/	/	65	/	1.4
O=C(Nc1ccncc1)c1cc2ccccc2o1	2	-22	42	4%	/	Arbovirus inh repeat=9
O=C(O)c1ccc(CNC(=O)C2CCCN2C(=O)OCc2ccccc2)cc1 (configuration not stated)	/	/	5	/	-2.8
COc1ccc(NC(=O)c2cccc(S(=O)(=O)N(C)c3ccccc3)c2)cn1	1	-30	-5	3%	1.4
CN(CC(=O)Nc1ccc(F)c(F)c1F)C(=O)C1CCN(C(=O)Nc2ccccc2)CC1	/	/	0	/	-0.7
COc1ccc(C2C(C(C)=O)=C(O)C(=O)N2c2cccnc2)c(OC)c1 (configuration not stated)	2	-32	-5	-10%	-1.9
O=C(NNC(=O)c1oc2ccccc2c1-n1cccc1)c1ccco1	2	/	24	3%	1.3
CCc1nnc(NC(=O)C2CSC3(C)CCC(=O)N23)s1 (configuration not stated)	/	/	-9	/	8.3
CC(=O)c1ccccc1NC(=O)c1ccc(N2CCCC2=O)cc1	/	/	1	/	-1.0
COc1ccc(N2CCN(C(=O)c3ccc4c(=O)n5c(nc4c3)CCCCC5)CC2)cc1	/	/	0	/	-2.5
O=C(NCC1CCN(c2ccc(S(=O)(=O)N3CCOCC3)cc2)CC1)c1ccc(Cl)cc1	-4	-4	93	8%	5.3
C/C(=N\Nc1cc(-c2ccccc2)nc(-c2ccc(Br)cc2)n1)c1cccc(N)c1	/	-32	?	?	-2.5
COc1cccc(CNC(=O)C2(C)Oc3ccccc3NC2=O)c1 (configuration not stated)	-2	4	-1	0%	-1.4
Cc1ccc2nc(C)cc(C(=O)N3CCCC(N4CCN(c5ccccc5C)CC4)C3)c2c1 (configuration not stated)	/	/	0	/	1.8
CN1CCN(c2ccc(S(=O)(=O)N3CCOCC3)cc2NC(=O)CCc2ccccc2)CC1	/	/	0	-2%	1.7
